Screening results deposited in PubChem BioAssay by several laboratories.
Rce1 inh: yeast Rce1p protease inhibitors, primary screen, biochemical, fluorescence, cell-free homogeneous; CAAX prenyl protease 2 (Saccharomyces cerevisiae (strain ATCC 204508 / S288c)), Q03530; yeast membranes, quenched prenylated peptide cleavage fluorescence; calls only; 0.27% of 290,000 active;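 active = fall in fluorescence gain of 50% or more versus controls, with final raw signal at or below 3038400; inconclusive = same 50% fall but final raw signal above 3038400; inactive = fall in fluorescence gain under 50%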;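 also: plate controls were neutral control wells for no effect and wells lacking membranes for full effect; tested at 10 µM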
Target sequence (Q03530 whole entry, looked up): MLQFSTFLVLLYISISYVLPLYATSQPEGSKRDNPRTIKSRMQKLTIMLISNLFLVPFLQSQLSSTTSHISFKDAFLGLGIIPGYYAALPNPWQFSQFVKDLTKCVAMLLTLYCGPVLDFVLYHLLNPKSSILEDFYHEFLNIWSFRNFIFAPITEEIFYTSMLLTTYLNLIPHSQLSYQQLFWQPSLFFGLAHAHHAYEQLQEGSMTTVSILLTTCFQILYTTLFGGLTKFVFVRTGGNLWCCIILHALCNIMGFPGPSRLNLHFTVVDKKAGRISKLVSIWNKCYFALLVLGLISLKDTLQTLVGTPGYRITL
HIV Env fusion: inhibitors of HIV-1 Env-driven cell-cell fusion, primary screen, HeLa-JRFL effector, CEM21 target cells, luciferase; inhibition, % at 12.3 µM; 1.1% of 360,000 active; AID 651610, 2012;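 active = mean replicate inhibition score of at least 50 and every replicate individually at or above 50; inconclusive = only one of the two criteria met; inactive = mean below 50 and not all replicates reaching 50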;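 also: 0% = plate neutral controls and 100% = maraviroc near 300 nM; one replicate is shown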
CSC inhib: cancer stem cell viability inhibitors, primary screen, luminescence. cancer stem cell-like cells viability. inhibition, % at 7.5 µM. 1.1% of 300,000 active;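 active = mean at 75% or more and at least half the replicates too; inconclusive = mean and replicates disagree; tested in HMLE shEcad cells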;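 also: 0% = median of negative and 100% = median of positive control wells; the first replicate is given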
eIF4H inh: human eIF4H binding inhibitors, primary screen, translation initiation inhibitor project, biochemical, uHTS, fluorescence polarization; inhibition, % at 35 µM; AID 2012, 2009; eIF4H fluorescence polarization binding assay; Eukaryotic translation initiation factor 4H (Homo sapiens), Q15056; 0.94% of 290,000 active;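 active = 50% or more with normal probe brightness, or confirmed in later tests; inconclusive = above 50% with abnormal brightness, or retests that disagree; inactive = below 50% or failed in later tests; about a fifth of its hits are not listed in these tables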;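 also: calls also rest on retests at 20 µM and on dose response follow-up; 0% = protein and probe with vehicle and 100% = probe without protein; strong numbers were not always called active; many hits fall short of the cut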
Yeast UUG start: modulators of yeast start codon fidelity, primary screen, whole organism, S. cerevisiae, single point, plate reader. S. cerevisiae UUG-firefly luciferase reporter, luminescence/redox ratio. activity score, % at 18.7 µM. 0.13% of 350,000 active. AID 602363, 2012;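 active = replicate mean at a twofold rise or more, about +100% in these data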;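 also: firefly luciferase made from a UUG start codon reports start codon fidelity; reporter light over untreated wells divided by growth signal over untreated wells; some hits fall short of that in this replicate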
PABP polyA inh: PABP poly(A) RNA binding inhibitors, primary screen, biochemical, fluorescence polarization, uHTS; Polyadenylate-binding protein 1 (Homo sapiens), P11940; inhibition, % at 35 µM; 1% of 290,000 active; AID 2014, 2009;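 active = 50% or more with normal probe brightness, or confirmed in later tests; inconclusive = above 50% with abnormal brightness, or retests that disagree; inactive = below 50% or failed in later tests; about a fifth of its hits are not listed in these tables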;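 also: calls also rest on retests at 20 µM and on dose response follow-up; controls were probe without protein and protein plus probe with vehicle; some compounds called inactive have numbers as strong as hits; many hits fall short of the cut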
MT1-MMP act inh: blockers of MT1-MMP proenzyme processing, primary screen, HT1080 RFP-PRO-GFP cells, GFP/RFP fluorescence. GFP/RFP ratio fluorescence, overnight; percent of plate control window, DMSO zero. GFP/RFP ratio change, % at 20 µM. 0.061% of 360,000 active;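 active = GFP/RFP ratio change of at least 30% with cell ATP level not reduced by more than half and red fluorescence within 50% of control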; also: strong numbers were not always called active
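Test system: HT1080 cells expressing an RFP-PRO-GFP fluorescent reporter construct / Compound dosing: single-point 20 µM compound, 1% DMSO / Schedule: cells overnight before dosing, compound overnight, 37 °C, 5% CO2 / Evaluation: GFP/RFP fluorescence ratio / Control set: DMSO and RFP-L50D-GFP cell wells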
eIF4H inh retest: second read-out of eIF4H inh, no call of its own (marks repeat the call); inhibition, %; compound at 20 µM; confirmation average;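 mean of two retest wells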
PABP polyA inh retest: also measured in PABP polyA inh; calls as there; inhibition, %; compound at 20 µM; confirmation repeats;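 mean of two retest wells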
MT1-MMP act inh RFP: second read-out of MT1-MMP act inh, no call of its own (marks repeat the call); RFP signal change, %; measured here: RFP expression control read;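 0 = vehicle wells; hits needed this value within 50% of zero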
Starred values were filed as active, the others as inactive; i = inactive; ? = inconclusive; nt = no result given. Not a hit list; about 2.9% have a hit in one of these screens.

SMILES	Rce1 inh	HIV Env fusion	CSC inhib	eIF4H inh	Yeast UUG start	PABP polyA inh	MT1-MMP act inh	MT1-MMP act inh RFP	others
CCCc1ccc(C(=O)CCC(=O)O)cc1	i	nt	nt	15	5	3	-1	4
CC1=Nc2cc(C(=O)NCCCN3CCOCC3)ccc2Sc2c(C)ccc(C)c21	i	6	47	-9	-11	-9	5	1
Cc1ccc(S(=O)(=O)N2CCCCC2)cc1NC(=O)Cn1cc(C(F)(F)F)ccc1=O	nt	19	nt	nt	-20	nt	3	-5
COc1c(Br)cc(C(N)=O)cc1OCc1ccccc1	i	-51	14	-6	nt	3	4	3
Cc1ccc(O)c(-c2cc(C(=O)Nc3cccnc3)[nH]n2)c1	i	-43	6	-1	-11	9	15	2
COc1cc(Cl)c(C)cc1NC(=O)CN1CCCCCC1	i	-10	-11	-8	-12	9	-3	-4
O=C(N/N=C/c1c[nH]c2ccccc12)C1CC(=O)N(c2ccccc2)C1 (configuration not stated)	i	-2	2	8	nt	-5	-4	-6
CCCC(=O)N1CCC1(C)C(=O)NS(=O)(=O)c1ccccc1Cl (configuration not stated)	nt	20	nt	nt	8	nt	1	6
COC(=O)COc1ccc(/C=N/NC(=O)c2ccc(N(Cc3ccccc3)S(C)(=O)=O)cc2)cc1	i	4	22	-2	nt	-5	6	5
Cc1ccc(-c2[nH]ncc2CNCCc2cnn(-c3ccccc3)c2)cc1C	i	66*	19	-2	-10	-4	0	-2
COc1ccc2c(=O)c3c(=O)n(Cc4ccco4)c(C(C)C)nc3oc2c1	i	-217	11	-8	7	-14	-3	0
Cc1cccc(N(CC(=O)N=Nc2c(O)[nH]c3ccccc23)S(C)(=O)=O)c1C	i	-54	-17	-3	8	-10	0	0
O=C(NCCc1ccc(Cl)cc1)C1CC(=O)N(C2CCCCC2)C1 (configuration not stated)	i	9	-16	nt	-3	nt	4	5
CCC/C(C)=N\Nc1nc2c(c(=O)n(C)c(=O)n2C)n1C	i	-2	9	-14	-6	2	1	5
CC(=O)N1CCCc2cc(S(=O)(=O)N3CCCC(C(=O)N4CCN(c5ccccc5)CC4)C3)ccc21 (configuration not stated)	i	4	-7	-4	nt	-8	-4	-24
Cc1cccc(-n2nnnc2SCn2nnc3ccccc3c2=O)c1	i	-44	-3	nt	-21	nt	4	-5
COCCCN1C(=O)c2ccc(C(=O)Nc3ccc(OC)cc3)cc2C1=O	i	-419	-2	-12	nt	-12	1	1
O=C(O)CCCCCNS(=O)(=O)c1c(Cl)cccc1Cl	i	-21	13	-4	-3	-8	-9	7
O=C(Nc1ccccc1C(=O)N1CCCCCC1)c1ccccc1Cl	i	9	-35	5	1	-12	3	1
COc1ccc(C(C)=O)cc1COC(=O)Cc1cc(OC)c(OC)c(OC)c1	i	-4	-10	12	1	-9	1	2
Cc1sc2ncnc(N3CCN(C(=O)c4ccco4)CC3)c2c1C	i	40	2	-6	nt	2	-9	-16
O=C(NCCCN1CCOCC1)c1ccc(CNS(=O)(=O)c2ccc(Br)cc2)cc1	i	nt	36	6	-14	4	-4	0
Cc1cccc(N2CCN(c3ccc(N4C(=O)CCCC4=O)cc3[N+](=O)[O-])CC2)c1C	i	-8	28	1	-3	-1	5	-9
COc1cc(C(=O)N2C[C@H]3CC[C@H]2C3)ccc1OC1CCN(C(C)=O)CC1	i	nt	-24	-7	-38	-5	-1	-3
CC(C)C[C@@H](CO)N1CCN(Cc2cccc(C#N)c2)CCC1=O	i	?	6	-11	-14	2	5	0

(cont.)
SMILES	Rce1 inh	HIV Env fusion	CSC inhib	eIF4H inh	Yeast UUG start	PABP polyA inh	MT1-MMP act inh	MT1-MMP act inh RFP	others
Cc1ccc(CNC(=O)C2CCN(S(=O)(=O)c3cccs3)CC2)o1	i	nt	4	2	-9	8	4	6
O=C1NC(=O)C2(COC(c3cccc([N+](=O)[O-])c3)OC2)S1 (configuration not stated)	i	-2	-6	-3	-12	-6	1	7
Cc1ccc(NC(=O)CNC(=O)c2cccc(C)c2)nc1	i	nt	43	nt	-17	nt	2	2
Cc1ccc(S(=O)(=O)Nc2ccc(-c3nc4ccc(C)cc4s3)cc2)cc1	i	nt	19	5	nt	-2	1	-4
Cc1cccc(NC(=S)N/N=C/c2cccn2Cc2ccc(F)cc2)c1	i	13	37	2	nt	14	-7	-19
CC(=O)c1ccc(OCC(=O)NCCC2=CCCCC2)cc1	nt	-5	nt	nt	14	nt	3	1
O=C1CSC(=S)N1/N=C/c1ccc2c(c1)OCCO2	i	-7	-8	6	7	1	-7	3
Cc1cc(O)c(C(=O)/C=C/c2ccccc2O)c(=O)o1	i	-5	-1	0	-8	0	-8	3
CCCCN(CC)C(=O)CN(C)S(=O)(=O)c1cccc2nsnc12	i	1	-16	-7	-36	-6	1	-2
C=CCN(CCNP(=O)(OCC)OCC)CP(=O)(OCC)OCC	i	nt	-3	-4	5	-6	-7	3
COc1ccc(N=C(N)N=C(N)N)c(OC)c1	i	-9	-6	0	-22	5	-7	3
C(#Cc1ccccc1)C[N+]1(CC#Cc2ccccc2)CCCC1	i	15	8	-11	-7	0	-6	-16
Nc1cc(Cl)ccc1N1CCCCCC1	i	14	2	8	nt	14	-3	-4
Cc1ccc(OCC(=O)NCc2cccs2)cc1	i	-49	-2	-3	-3	-12	1	2
CC1CN(c2oc(-c3ccccc3Cl)nc2C#N)CC(C)O1 (configuration not stated)	i	nt	-4	-3	-15	-3	2	-2
O=C(COc1ncnc2sccc12)NC1CCCCC1	nt	-5	nt	nt	-26	nt	-2	1
COc1cc(S(=O)(=O)Nc2ccncc2)ccc1F	i	15	-11	2	nt	26	1	2
CC(=O)N1CCc2cc(S(=O)(=O)NC(CC(C)C)C(=O)N3CCn4c3nc3ccccc34)ccc21 (configuration not stated)	i	-2	nt	-8	-4	10	4	-2
CN1CCN(c2ccc(Cl)cc2NC(=O)CC2OC(=O)c3ccccc32)CC1 (configuration not stated)	nt	nt	-1	nt	-3	nt	-2	-1
O=C(Cc1ccc2c(c1)OCCO2)Nc1cc(Cl)ccc1N1CCOCC1	nt	49	nt	nt	-16	nt	1	-2
COc1cc(C)c(S(=O)(=O)Nc2ccc(CC(=O)O)cc2)cc1C	i	11	-1	1	-9	-14	-3	-2
COCCCNC(=S)N(CCO)Cc1cc2cc3c(cc2[nH]c1=O)OCCO3	i	-26	-13	-5	-17	1	-5	-2
S=C(Nc1ccccc1)N1CCC(Cc2ccccc2)CC1	i	17	-10	4	-7	11	0	-4
CCC(=O)N1CCc2cc(S(=O)(=O)NCCCN(CC)Cc3ccccc3)ccc21	i	nt	-11	10	-4	-2	0	-1
CC(=O)c1cccc(NC(=O)c2ccccc2-c2ccccc2C(=O)O)c1	i	-3	-10	7	-5	7	-1	-2

Later entries.
SMILES	Rce1 inh	HIV Env fusion	CSC inhib	eIF4H inh	Yeast UUG start	PABP polyA inh	MT1-MMP act inh	MT1-MMP act inh RFP	others
O=C(NCC(=O)N(c1cccnc1)C(C(=O)NC1CCCCC1)c1ccccc1)c1ccco1 (configuration not stated)	i	7	-9	-12	10	-4	3	5
COc1ccccc1NC(=O)c1ccc(NC(=O)COC(=O)C2CC2C)cc1 (configuration not stated)	i	nt	1	2	-26	6	1	-2
O=C(COc1cc2oc(=O)c3c(c2cc1Cl)CCC3)NCCCN1CCCC1=O	i	-5	-5	0	-6	12	-1	0
CCOc1ccc(CCNC(=O)c2ccc3c(c2)NC(=O)C2CCCN32)cc1OCC (configuration not stated)	i	nt	8	-11	nt	-14	nt	nt
COc1ccc(-c2sc3ccccc3c2/C=C/c2ccncc2)cc1	nt	-7	102*	nt	-19	nt	-6	-3
CCc1ccc(CNc2ccc(N3CCN(C(C)=O)CC3)cc2)cc1	i	37	8	-3	-21	-2	8	-2
C=CS(=O)(=O)N(Cc1ccccc1Br)[C@H](CO)Cc1ccccc1	nt	50	nt	nt	-8	nt	-11	-11
COc1ccc(-c2cc(CCCC(=O)NCc3ccccn3)no2)cc1	i	-74	-11	-5	-30	-5	1	-3
c1ccc(OCc2nn3c(-c4ccccn4)nnc3s2)cc1	i	-62	-9	-4	-20	1	-4	-5
Brc1ccc(-c2nnc(SCCC3OCCCO3)o2)cc1	nt	-60	-2	-2	-13	-9	2	3
COc1ccc(/C=N/NC(=O)c2cccc(C(=O)N/N=C/c3ccc(OC)c(OC)c3)n2)cc1OC	i	6	nt	-3	-19	0	-1	0
c1ccc(-c2csc3nnc(SCc4ccc5c(c4)OCCO5)n23)cc1	i	nt	-3	-11	-12	-3	-5	-4
COc1ccc(OC)c2sc(N3CCc4ccccc4C3)nc12	i	-12	nt	-2	nt	6	-2	-1
CC1(C(=O)NS(=O)(=O)c2cccc(OC(F)F)c2)CCN1C(=O)C/C=C/c1ccccc1 (configuration not stated)	nt	17	nt	nt	-8	nt	-5	2
Cc1ccccc1Nc1ncnc(N)n1	i	-1	-8	5	-1	-7	2	9
COc1cc2c(cc1OC)CN(C(=O)C1CCCN(C(=O)c3ccc(Cl)cc3)C1)CC2 (configuration not stated)	nt	-11	-1	nt	-5	nt	3	-4
COc1cccc(OCC(O)CNC(=O)c2oc3c(C)c(C)ccc3c2C)c1 (configuration not stated)	i	-13	13	2	7	-5	4	1
COc1ccc(S(=O)(=O)N2CCCCC2)cc1NC(=O)CSc1nccn1C	i	14	-6	4	nt	-5	-1	2
O=C(CN1C(=O)c2ccccc2C1=O)NN1C(=O)c2ccccc2C1=O	i	-28	-19	-1	-12	56	-1	-3	eIF4H inh retest=2;PABP polyA inh retest=11
Cc1c(NC(=O)Nc2cccc(C(F)(F)F)c2)c(=O)n(-c2ccccc2)n1C	i	-2	6	-13	-15	4	1	1
COc1ccc2oc(C(=O)N3CCN(S(=O)(=O)c4ccc(F)cc4)CC3)c(C)c2c1	nt	-8	12	nt	-16	nt	-4	-7
CC(C)(C)NC(=O)C(c1ccccc1)N(Cc1ccco1)C(=O)c1csnn1 (configuration not stated)	i	-15	5	6	-6	-3	-3	-7
COc1cccc(CNCc2cc(OC)cc(OC)c2)c1	i	4	-7	-1	-17	1	-3	-3
CC(=O)OCC(=O)Nc1ccc(Br)c(C)c1	i	4	-3	4	nt	?	17	11
N#CCc1ccc(OC(=O)Nc2ccccc2)cc1	i	-5	-14	-9	-3	-2	3	2
N#CC1(NC(=O)CSc2nc3ccccc3o2)CCCCC1	nt	-10	5	nt	-1	nt	2	0
CCOC(=O)c1c(C)c(C(=O)N2CCN(c3ccccc3)CC2)c(C)n1C	i	1	-14	7	-1	-3	1	3

Looked up by structure from above (2):
SMILES	Rce1 inh	HIV Env fusion	CSC inhib	eIF4H inh	Yeast UUG start	PABP polyA inh	MT1-MMP act inh	MT1-MMP act inh RFP	others
COc1ccc(/C=N/NC(=O)c2cccc(C(=O)N/N=C/c3ccc(OC)c(OC)c3)n2)cc1OC	i	6	nt	-3	-19	0	-1	0
N#CCc1ccc(OC(=O)Nc2ccccc2)cc1	i	-5	-14	-9	-3	-2	3	2
